Assay outcomes deposited in PubChem BioAssay by several laboratories.
E coli growth: E. coli growth inhibition, primary screen, OD600 | Escherichia coli growth, 23 h; active compounds read low | OD600 absorbance (test concentration not listed) | 330,000 compounds, 0.21% hits;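 active means OD600 absorbance below the run mean of sample wells minus 3.6 SD, in any replicate, cut at about 0.56 in these data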;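 further: stock transfer was 300 nL into about 60 µL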
Vif TR-FRET: inhibitors of Vif binding to APOBEC3G peptide, primary screen, biochemical, TR-FRET, GST-Vif 1-94, biotin-A3G peptide, dose response retest (AID 1117319); TR-FRET GST-Vif / biotin-A3G peptide binding; higher % means a stronger effect; test concentration not given here; strong numbers were not always called active; inhibition, %, or IC50 in µM where a hit was titrated; 260,000 compounds, 0.57% hits;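 active means above the screen mean plus three standard deviations and confirmed in dose response; inconclusive means results disagree or hit not tested in dose response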;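 further: Vif residues 1-94 fused to GST binding biotinylated APOBEC3G peptide 110-148; 0% = full assay without inhibitor and 100% = GST in place of GST-Vif; retest series ran down from 100 µM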
rRNA inh HTS: reduced GFP signal of wild-type E. coli, primary screen, bacterial rRNA inhibitor project, GFP/RFP fluorescence, OD600, single point. E. coli WT GFP vs humanized-ribosome RFP mutants, 24 h; active compounds read low; DMSO median 0, no signal -100. GFP signal change (wild-type ribosome), % (concentration not given with the values). 350,000 compounds, 1.6% hits;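 active means significant combined selectivity score with lowered wild-type GFP, culture density cut under 30%, mutant RFP and density less affected; inactive means any of these conditions unmet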; further: one replicate is shown; some compounds called inactive have numbers as strong as hits
HNF4A DNA FP: change in binding of human HNF4A to DNA, primary screen, biochemical, fluorescence polarization, FITC-DNA. Hepatocyte nuclear factor 4-alpha (Homo sapiens), P41235. 1 h. activity change, % at 10 µM. 360,000 compounds, 0.3% hits. AID 1224865, 2016; in the data active means activity change above about 30%, passing the limit was not always enough;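 further: controls were the assay level and a saturating level of protein; the project sought stronger binding though the title names inhibitors; some compounds called inactive have numbers as strong as hits; positive values seem to mean higher polarization but the record does not say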
Target sequence (P41235 whole entry, looked up): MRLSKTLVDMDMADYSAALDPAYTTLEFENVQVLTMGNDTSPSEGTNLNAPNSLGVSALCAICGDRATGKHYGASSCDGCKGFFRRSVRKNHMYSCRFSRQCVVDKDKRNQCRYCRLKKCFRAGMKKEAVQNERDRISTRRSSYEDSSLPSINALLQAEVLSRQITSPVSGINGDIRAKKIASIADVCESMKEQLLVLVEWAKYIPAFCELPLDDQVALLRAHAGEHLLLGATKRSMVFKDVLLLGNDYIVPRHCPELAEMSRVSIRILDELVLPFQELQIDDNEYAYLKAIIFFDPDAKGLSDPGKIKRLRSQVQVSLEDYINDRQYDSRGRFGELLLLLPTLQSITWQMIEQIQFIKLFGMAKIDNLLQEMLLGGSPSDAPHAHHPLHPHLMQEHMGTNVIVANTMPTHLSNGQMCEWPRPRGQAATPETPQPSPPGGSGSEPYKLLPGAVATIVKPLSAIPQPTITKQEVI
ALR inh: inhibitors of human ALR sulfhydryl oxidase, primary screen, biochemical, H2O2 detection, HRP-luminol luminescence, single point; FAD-linked sulfhydryl oxidase ALR (Homo sapiens), P55789; purified ALR, DTT oxidation; inhibition, % (no concentration beside the values); 290,000 compounds, 3.8% hits;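 active means mean and each replicate at 75% or more; inconclusive means only one of the two met; inactive means neither met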;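 further: stock transfer was 7.5 nL into about 7.5 µL; 0% = neutral wells and 100% = wells with inactivated enzyme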
Target sequence (P55789 whole entry, looked up): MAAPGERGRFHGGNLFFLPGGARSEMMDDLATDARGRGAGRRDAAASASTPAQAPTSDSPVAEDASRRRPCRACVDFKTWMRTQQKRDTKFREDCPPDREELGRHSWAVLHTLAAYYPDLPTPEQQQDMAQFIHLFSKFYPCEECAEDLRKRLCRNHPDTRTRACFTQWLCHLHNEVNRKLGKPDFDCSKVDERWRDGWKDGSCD
MLL AF4-AF9 inh: inhibitors of AF4 peptide binding to AF9, primary screen, biochemical, AlphaScreen, biotin-AF4 peptide, FLAG-AF9, single point; 350,000 compounds, 0.47% hits; Protein AF-9 (Homo sapiens), P42568; inhibition, % at 10 µM;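 active means every replicate reaching a set inhibition limit, whatever the replicate mean, cut at about 25% in these data; inconclusive means mean inhibition reaches that limit but some replicates miss it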;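 further: 0% = plate neutral control median and 100% = total signal loss; the record names both 10 and 1 µM as test concentration; the first replicate is given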
FGF22 binding: binders of human FGF22 protein, primary screen, FGF22 synaptogenesis inhibitor project, biophysical, thermal shift, single point; calls only at 9.99 µM; 340,000 compounds, 1.5% hits; recombinant FGF22 thermal shift, SYPRO orange fluorescence; percent of sucrose octasulfate shift, DMSO zero;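 active means melting point raised past a set limit in the mean and every replicate; inconclusive means no clear call; three in four hits are not shown here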
Target sequence (Q9HCT0 whole entry, looked up): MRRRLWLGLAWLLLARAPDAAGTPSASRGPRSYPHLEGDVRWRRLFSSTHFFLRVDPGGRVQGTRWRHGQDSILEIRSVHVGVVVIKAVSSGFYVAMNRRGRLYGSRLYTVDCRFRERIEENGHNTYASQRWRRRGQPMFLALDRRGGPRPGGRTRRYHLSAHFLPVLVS
rRNA inh HTS OD600: recorded beside rRNA inh HTS, whose call it bears; OD600 change, %; measured here: OD600 growth;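 optical density of the mix in the first replicate; 0 = DMSO median and -100 = no signal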
rRNA inh HTS RFP: further read-out of rRNA inh HTS, marked with its call; RFP signal change, %; measured here: RFP humanized mutant strains;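 first replicate; 0 = DMSO median and -100 = no signal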
An asterisk follows results filed as active; i = inactive; ? = inconclusive; . = no result given; & = joins results of further samples. Some of the compounds tested (hit frequency here may not be typical).

SMILES	E coli growth	Vif TR-FRET	rRNA inh HTS	rRNA inh HTS OD600	rRNA inh HTS RFP	HNF4A DNA FP	ALR inh	MLL AF4-AF9 inh	FGF22 binding
Cc1cc(NC(=O)COC(=O)Cn2c(C)csc2=O)ccc1Br	0.667	.	-3.2	-6.9	1.6	1.5	-0.8	1.3	i
CS(=O)(=O)N(CC(=O)N1CCN(Cc2ccc3c(c2)OCO3)CC1)c1ccc2c(c1)OCO2	0.66	19.9%	.	.	.	1.1	-17.6	.	.
C=CC[N+](C)(C)CCN1C(=O)C2C(c3ccccc3)C=CC(c3ccccc3)C2C1=O (configuration not stated)	0.657	25.4%	2.8	3.0	10.1	-3.7	-2.3	1.2	i
Cc1nc2c(cnn2CCO)c(=O)[nH]1	0.692	9.0%	2.0	8.4	-2.3	-1.9	.	0.9	i
CC=Cc1ccc2n(c1=O)C[C@H]1[C@H](CO)[C@@H](C(=O)OC)N(CCc3ccccc3)[C@@H]21 (mixture of isomers)	.	.	-3.8	-4.0	-0.2	.	.	0.0	i
N#Cc1nc(-c2ccccc2)oc1N1CCCCC1	0.73	-2.4%	11.9	1.5	0.1	-2.0	64.2	-1.7	i
CCOc1ccc2[nH]c(=O)c(CN(CCO)C(=O)c3ccc(Br)cc3)cc2c1	0.75	21.8%&-7.2%	.	.	.	4.3	-5.2	.	.
Oc1c(Br)cc(Br)cc1C=Nc1ccc2c(c1)OCCO2	0.669	-9.1%	11.2	6.3	0.7	2.4	-4.7	1.2	i
CSc1nnnn1-c1c(C)cc(C)cc1C	0.717	4.1%	9.8	19.3	0.9	-2.8	-3.4	-0.6	i
CN1CCN(c2ccccc2NC(=O)c2ccccc2F)CC1	0.68	3.8%	0.7	5.8	11.7	1.7	.	-0.5	i
O=c1[nH]c(=S)ccn1C1OC(CO)C(O)C1O (configuration not stated)	0.764	.	-6.2	-14.7	-25.6	5.9	17.2	-3.4	i
O=C(c1ccccc1)c1cc([N+](=O)[O-])ccc1N1CCOCC1	0.696	18.0%	.	.	.	-1.3	7.4	.	.
CCC(C)[C@H](NC(=O)N1CCN(C)CC1)C(=O)OC (some centres not stated)	0.714	.	18.0	17.9	-11.3	-0.2	.	-2.6	i
O=C(C1CCCCC1)N1C[C@@H]2[C@H](c3ccccc31)[C@H](CO)N2Cc1ccccc1Cl	.	.	-49.1	-68.8	6.3	.	.	1.8	i
COc1ccc(Cl)cc1NC(=O)CN(C)C(=O)c1cccc(-n2cnnn2)c1	0.662	-4.8%	0.4	-7.3	0.7	-3.3	-0.6	-2.5	i
Cc1ccc([N+](=O)[O-])c(C(=O)Nc2cccnc2Cl)c1	0.684	12.4%	11.6	18.1	-1.5	-0.4	-4.1	-2.5	i
CN(C)C(=O)c1cccc(-c2cccc(-c3nc(C(=O)N4CCOCC4)cc4c3[C@@H](CCO)N([S@](=O)C(C)(C)C)C4)c2)c1	.	.	-1.8	0.9	24.7	.	.	-2.5	i
COc1ccc(C2(O)CN(c3ccccc3)C3=[N+]2CCS3)cc1OC (configuration not stated)	0.713	?	12.0	7.4	-5.8	0.3	-6.7	0.8	i
COc1cccc(CCc2nnc(CCC(=O)NCCc3cccc(C)n3)o2)c1	0.676	4.5%	11.7	8.2	-0.9	-2.6	-7.3	0.0	i
Cc1cc(C(=O)NCc2nc(-c3ccccc3)no2)ccc1[N+](=O)[O-]	0.705	11.9%	-13.4	-9.3	2.9	-3.3	-6.5	-1.7	i
COc1ccc(NC(=O)N[C@@H]2C=C[C@@H](CC(=O)NCc3ccccn3)O[C@@H]2CO)cc1	.	.	2.2	-3.7	-2.8	.	.	-0.7	i
CCOC(=O)CSc1ncnc2c1sc1nc(N3CCOCC3)c3c(c12)CCCC3	0.727	?	.	.	.	-1.8	-14.8	.	.
CCN(CCN(C)C)C(=O)c1ccc2c(c1NCCO)C(=O)c1ccccc1C2=O	0.738	-4.1%	-32.8	-7.8	23.6	4.1	.	17.1	i
COCCNC(=O)C1CCCN(C(=O)COc2ccc(C(C)(C)C)cc2)CC1 (configuration not stated)	.	.	-0.3	-4.5	1.2	-0.7	.	-2.9	i
O=C(CCCCCCN1C(=O)c2ccccc2C1=O)Nc1nccs1	0.751	-7.9%	.	.	.	1.2	-2.4	.	.
CCN1CCN(C2=C(NS(=O)(=O)c3ccc(Br)cc3)C(=O)c3ccccc3C2=O)CC1	0.7	.	0.5	-8.5	1.3	-1.9	-6.2	14.0	i
CCOc1ccc(NC(=O)c2c(OC)cccc2OC)cc1	0.645	5.1%	1.9	5.5	1.7	-2.1	-2.5	-1.3	i
Cc1cc(-c2nnc(SCC(=O)Nc3nc(-c4ccc(Cl)cc4)cs3)o2)no1	0.715	5.2%	-33.2*	-16.5*	-3.1*	2.5	99.0*	-2.6	i
COc1ccc(N2CCN(CC(O)COc3ccc(F)cc3)CC2)cc1 (configuration not stated)	0.689	0.6%	7.0	1.0	-1.8	6.3	98.7*	3.8	i
COc1ccc(OC)c(N(CC(=O)Nc2cccc3ccccc23)S(C)(=O)=O)c1	0.712	.	-11.6	-12.6	-2.5	5.0	0.3	-14.2	i
CCOC(=O)c1ccc2c(c1)nc(SCc1cn3ccsc3n1)n2CC	0.676	2.3%	.	.	.	0.1	24.1	.	.
COc1cc(CCCN2C(=S)NC[C@@H]2c2ccccc2)cc(OC)c1OC	0.794	0.1%	0.6	-5.8	0.2	-1.4	4.4	-8.0	i
Cc1ccc(S(=O)(=O)N2CCN(Cc3cc4c(cc3Br)OCCO4)CC2)cc1	0.739	-1.0%	-1.7	0.0	1.4	1.5	-1.1	0.8	i
CSc1ccc(CN(C)C(=O)CNC(=O)c2sc3ccccc3c2Cl)cc1	0.725	.	-1.8	-12.5	8.1	0.5	-0.8	1.0	i
Cc1ccc(CNC(=O)CN(C)S(=O)(=O)c2cnc[nH]2)cc1	0.688	.	.	.	.	-2.1	-3.0	.	.
CC(CCc1ccccc1)NC(=O)CCN1N=C(c2ccccc2)CCC1=O (configuration not stated)	0.695	3.4%	-5.5	-2.2	-0.4	0.2	0.0	-3.1	i
C/C(=C\C(=O)c1ccc(Br)cc1)Nc1ccc(Cl)cc1	0.705	17.4%	-2.0	-5.0	-1.6	-2.2	-9.9	0.2	i
C[C@H]1CN([C@@H](C)CO)C(=O)c2cc(C#CC3CC3)cnc2O[C@H]1CN(C)S(=O)(=O)c1cccc(F)c1	.	.	4.0	6.9	1.4	.	.	-1.5	i
Cc1nnc2sc(-c3csc4c3CCCC4)nn12	0.667	1.9%	.	.	.	-0.9	.	.	.
CC1(CC(=O)O)C(=O)N=C2C=CC=CN21 (configuration not stated)	0.734	?	15.9	21.7	-7.6	-3.1	.	7.1	i
C=CCn1c(C(CCC(C)C)CC(C)(C)O)n[nH]c1=S (configuration not stated)	0.736	-0.2%	.	.	.	2.5	26.7	.	.
CCOC(=O)[C@]12CCCC=C1N(Cc1ccc(Cl)cc1Cl)C(=O)[C@H](CC(=O)N1CCCC1)C2	.	.	.	.	.	4.3	.	-1.0	i
Cc1ccc(S(=O)(=O)N2CCN(C(=O)Cc3c(F)cccc3Cl)CC2)cc1	0.671	2.8%	-3.3	4.3	-4.2	2.8	8.8	-0.6	i
CC(=O)N(C)C[C@@H]1Oc2cc(C#CC3CCCCC3)ccc2S(=O)(=O)N([C@@H](C)CO)C[C@@H]1C	.	.	-6.2	-18.9	19.9	.	.	7.3	i
COc1ccccc1N1CCN(CC(=O)NC(=O)NCc2ccco2)CC1	0.674	.	-2.7	5.8	-3.8	0.0	4.8	3.5	i
Cc1cccc(C)c1-n1nnnc1C1(C)CCC(=O)N1C1CC1 (configuration not stated)	.	.	2.6	7.8	-4.4	2.2	.	-1.1	i
COc1ccc2cc3c(N)nn(C(=O)Cc4ccc(Cl)cc4)c3nc2c1	0.767	1.2%	.	.	.	2.2	0.7	-1.5	i
Cc1cc(OC(=O)c2ccccc2Cl)ccc1N1C(=O)CCC1=O	0.642	5.3%	-16.2	-14.8	-0.4	-5.9	-6.3	-0.9	i
CCc1ccc2nc(SCC(=O)N3CC(=O)Nc4ccccc43)c(C#N)cc2c1	0.752	13.7%	.	.	.	0.6	-4.3	.	.
CCOC(=O)N1CCN(c2c(NCCN3CCN(Cc4ccccc4)CC3)c(=O)c2=O)CC1	0.723	3.5%	7.5	-3.7	-0.1	0.7	-1.8	0.6	i

Ordered by the number under ALR inh (high to low): 3 of the compounds above.
structure,Vif TR-FRET,rRNA inh HTS,rRNA inh HTS OD600,rRNA inh HTS RFP,ALR inh,MLL AF4-AF9 inh,FGF22 binding
COc1ccc(OC)c(N(CC(=O)Nc2cccc3ccccc23)S(C)(=O)=O)c1,.,-11.6,-12.6,-2.5,0.3,-14.2,i
C=CC[N+](C)(C)CCN1C(=O)C2C(c3ccccc3)C=CC(c3ccccc3)C2C1=O (configuration not stated),25.4%,2.8,3.0,10.1,-2.3,1.2,i
Cc1ccc(CNC(=O)CN(C)S(=O)(=O)c2cnc[nH]2)cc1,.,.,.,.,-3.0,.,.

Next part
SMILES	E coli growth	Vif TR-FRET	rRNA inh HTS	rRNA inh HTS OD600	rRNA inh HTS RFP	HNF4A DNA FP	ALR inh	MLL AF4-AF9 inh	FGF22 binding
O=C(NCCc1cccc(Cl)c1)c1cccs1	0.659	-7.9%	-6.0	-5.0	-2.5	-2.8	.	-3.5	i
C[C@H](CO)N1C[C@H](C)[C@H](CN(C)CC2CCOCC2)Oc2cc(C#Cc3ccccc3F)ccc2S1(=O)=O	.	.	-3.8	-3.8	10.2	.	.	4.1	i
C/C(=N\NC(=O)c1ccc(N/N=C(\C)c2ccncc2)cc1)c1ccncc1	.	?	-16.2	-7.8	-4.0	6.8	98.2*	0.2	i
O=C(OCN1C(=O)c2ccccc2C1=O)c1cccs1	0.727	-8.4%	.	.	.	-2.0	-5.9	.	.
O=C(c1ccc(N2CCN(S(=O)(=O)c3ccccc3)CC2)c([N+](=O)[O-])c1)N1CCOCC1	0.673	.	.	.	.	0.1	-7.8	2.6	i
O=C(CCCc1c[nH]c2ccccc12)Nc1ccc(S(=O)(=O)Nc2ncccn2)cc1	0.733	9.2%	-3.5	0.3	-7.5	0.7	.	-3.6	i
CC1(C(=O)NC2CCCC2)CCC(=O)N1C1CCN(Cc2ccccc2)CC1 (configuration not stated)	.	.	6.6	3.1	-2.1	1.2	.	-2.3	i
O=C(c1cccc(F)c1)N1CCCCN2[C@@H](CO)[C@H](c3ccc(-c4ccccc4)cc3)[C@@H]2C1	.	.	-58.2	-75.8	-13.6	.	.	3.5	i
CCOC(=O)C1(CCc2ccccc2)CCN(C(=O)c2cc(C)nc(C)n2)CC1	0.675	.	1.2	-2.6	0.9	-3.3	2.4	-0.2	i
Nc1cc(Oc2cccnc2)cc([N+](=O)[O-])c1	0.748	7.3%	-4.8	-1.8	-3.7	1.3	.	0.1	i
CCCC(=O)Nc1nc2ccc(NC(=O)c3c(F)c(F)c(OC)c(F)c3F)cc2s1	0.711	-0.8%	-13.5	-3.3	-0.3	1.5	12.2	-0.7	i
COc1ccc(OC)c(NC(=O)C2CC(=O)n3ncnc3N2)c1 (configuration not stated)	0.609	?	.	.	.	-0.1	-24.2	.	.
COc1ccc([N+](=O)[O-])cc1NC1CCCCC1	0.696	0.4%	.	.	.	5.2	98.8*	.	.
NC(=S)NNC(=O)c1ccccc1Cl	0.602	-7.2%	4.0	-7.0	0.3	-1.3	7.1	-4.5	i
